Ran_importin: RanGTP/importin-beta interaction disruptors – biochemical, CFP-Ran/YFP-importin-beta FRET, RCC1, cell-free, primary screen (AID 434961); CFP-Ran/YFP-importin-beta FRET, cell-free; hits give high values; inhibition, %; hit rate 0.2% among 7,700;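 active = more than half of the replicate wells above 15% inhibition; inconclusive = exactly half above it; inactive = fewer than half above it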;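 note: 0% = DMSO wells and 100% inhibition = RanGDP control wells on each plate; stock of unstated strength diluted about 400-fold; mean of two wells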
Active calls of the source: *; ? = inconclusive. Not all compounds are listed, so the mix of outcomes need not match the whole.

SMILES Ran_importin
C[C@H](CO)N1C[C@H](C)[C@H](CN(C)Cc2ccc3c(c2)OCCN3C)OCc2cnnn2CCCC1=O 1.2
C[C@@H]1CN([C@H](C)CO)C(=O)c2cc(N(C)C)ccc2O[C@H]1CN(C)S(=O)(=O)c1cn(C)cn1 5.5
C[C@@H]1CN([C@H](C)CO)C(=O)c2cc(NC(=O)NC3CCCCC3)ccc2O[C@@H]1CN(C)C -1.6
CNC[C@@H]1Oc2c(NC(=O)c3cnccn3)cccc2C(=O)N([C@@H](C)CO)C[C@H]1C 3.3
CNC[C@@H]1OCCCC[C@H](C)Oc2ccc(N)cc2C(=O)N([C@@H](C)CO)C[C@H]1C -0.3
COc1ccc(S(=O)(=O)Nc2cccc3c2O[C@@H](CN(C)Cc2ccc4c(c2)OCO4)[C@@H](C)CN([C@H](C)CO)C3=O)cc1 -0.9
C[C@H](CO)N1C[C@H](C)[C@H](CN(C)C(=O)Nc2ccc(C(F)(F)F)cc2)Oc2ccc(NC(=O)Nc3ccccc3)cc2C1=O ?
COc1ccc(CN(C)C[C@H]2Oc3c(NC(=O)NC(C)C)cccc3C(=O)N([C@@H](C)CO)C[C@H]2C)cc1 6.7
Cc1noc(C)c1NC(=O)N(C)C[C@@H]1Oc2ccc(NS(=O)(=O)c3cccs3)cc2C(=O)N([C@@H](C)CO)C[C@@H]1C -2.2
C[C@@H]1CN([C@@H](C)CO)C(=O)c2cccc(NC(=O)Nc3ccc(F)cc3)c2O[C@@H]1CN(C)C 2.2
C[C@@H]1CN([C@H](C)CO)C(=O)c2cc(NC(=O)Nc3ccc(F)cc3)ccc2O[C@H]1CN(C)C 6.7
C[C@H]1CCCCO[C@H](CN(C)S(=O)(=O)c2cccs2)[C@@H](C)CN([C@@H](C)CO)C(=O)c2cc(NC(=O)Cc3ccccc3)ccc2O1 0.2
C[C@@H]1CN([C@@H](C)CO)C(=O)c2cccc(NS(=O)(=O)c3cccs3)c2O[C@H]1CN(C)Cc1ccc(C(=O)O)cc1 1.4
C[C@H]1CN([C@@H](C)CO)C(=O)Cc2cc(NS(=O)(=O)c3ccccc3)ccc2O[C@H]1CN(C)C(=O)Nc1ccccc1 -1.1
C[C@@H]1CN([C@@H](C)CO)C(=O)CCCn2cc(nn2)CO[C@@H]1CN(C)C(=O)Nc1ccc(C(C)(C)C)cc1 -0.9

An excerpt from above in order of count of non-hydrogen atoms, low to high.
SMILES Ran_importin
CNC[C@@H]1OCCCC[C@H](C)Oc2ccc(N)cc2C(=O)N([C@@H](C)CO)C[C@H]1C -0.3
CNC[C@@H]1Oc2c(NC(=O)c3cnccn3)cccc2C(=O)N([C@@H](C)CO)C[C@H]1C 3.3
C[C@@H]1CN([C@H](C)CO)C(=O)c2cc(N(C)C)ccc2O[C@H]1CN(C)S(=O)(=O)c1cn(C)cn1 5.5
Cc1noc(C)c1NC(=O)N(C)C[C@@H]1Oc2ccc(NS(=O)(=O)c3cccs3)cc2C(=O)N([C@@H](C)CO)C[C@@H]1C -2.2
COc1ccc(S(=O)(=O)Nc2cccc3c2O[C@@H](CN(C)Cc2ccc4c(c2)OCO4)[C@@H](C)CN([C@H](C)CO)C3=O)cc1 -0.9
C[C@H]1CCCCO[C@H](CN(C)S(=O)(=O)c2cccs2)[C@@H](C)CN([C@@H](C)CO)C(=O)c2cc(NC(=O)Cc3ccccc3)ccc2O1 0.2

Already shown: an excerpt of the list.
SMILES Ran_importin
C[C@H](CO)N1C[C@H](C)[C@H](CN(C)Cc2ccc3c(c2)OCCN3C)OCc2cnnn2CCCC1=O 1.2
C[C@@H]1CN([C@H](C)CO)C(=O)c2cc(N(C)C)ccc2O[C@H]1CN(C)S(=O)(=O)c1cn(C)cn1 5.5
